# Calb biofilm kill: mixtures killing C. albicans biofilm | C. albicans biofilm persisters + clotrimazole, fluorescence viability; primary screen in compound mixtures of four per well | inhibition, % at 7.6 µM | 0.02% of 120,000 active;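 active = inhibition above 30.3% in the primary screen of four-compound pools, then above 30% when the compound was retested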;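 note: compounds exposed to preformed 24 h biofilms for 48 h; the number belongs to the whole pool; some results filed as inactive read as strong as hits; inactives centre near 12; 0% = biofilm with clotrimazole alone and 100% = kill control; retested singly at about 60 µM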
#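 Test system: C. albicans biofilms. Buffer or medium: RPMI/MOPS medium, pH 7.0. Timing: 48 h compound exposure at 37 °C. Technique: Alamar Blue fluorescence. Evaluation: percent inhibition of biofilm viability.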
# An asterisk follows results filed as active.
SMILES	Calb biofilm kill
O=C(CCNC(=O)c1ccccc1Cl)Nc1nc(-c2ccccc2Cl)cs1	24
COc1ccc(/C=C2/CCCC(C(=O)C(F)(F)F)=C2O)cc1OC	14
Nc1n[nH]c(C2CCCCC2)n1	-1
NC(=O)c1cnn(C2CCS(=O)(=O)C2)c1 (stereo not given)	19
COc1ccc(C(=O)Nc2ccc(NC(=O)c3cccs3)c(OC)c2)cc1Cl	28
Cc1ccc(C(=O)O)cc1NC(=S)NC(=O)c1ccc(-c2ccccc2)cc1	9
C=CCNC(=S)Nc1cccc(N)c1	13
CC(=O)NC1=NN(C(C)=O)C(C)(CS(=O)(=O)c2ccc3ccccc3c2)S1 (stereo not given)	8
CC(C)c1onc(C(=O)NCc2cccs2)c1[N+](=O)[O-]	18
O=c1[nH]ncn1-c1ccc(Br)cc1	12
O=C(CCN1C(=O)S/C(=C\c2cccs2)C1=O)NC1=NCCS1	13
Cc1ccc(CN2CCNC(=O)C2CC(=O)NCCCn2ncc3ccccc32)o1 (stereo not given)	7
CCOc1ccc(C2CC(c3c(O)c4ccccc4oc3=O)=NN2c2ccccc2)cc1OC (stereo not given)	19
COc1ccc(-c2csc(N)n2)cc1	7
O=C(COC(=O)c1ccc(Cl)cc1O)NC(=O)C1CCCCC1	15
CCOc1ccc(-c2nc(C#N)c(NCc3ccco3)o2)cc1	0
Cc1nn(Cc2ccccc2Cl)c(C)c1NC(=O)CCCn1nc([N+](=O)[O-])c(Cl)c1C	13
CCS(=O)(=O)NCC(c1cccnc1)N1CCN(c2ccc(OC)cc2)CC1 (stereo not given)	13
Cc1ccc(C(=O)N/N=C/c2ccc(-c3cccc(Cl)c3)o2)cn1	14
CCOC(=O)CC(NS(=O)(=O)c1ccc(OC)c(C)c1)c1cccc([N+](=O)[O-])c1 (stereo not given)	7
C/C(=N\N=C1/NC(=O)C(C)S1)c1ccc([N+](=O)[O-])cc1 (stereo not given)	9
CC(C)CC(=O)NC(=S)Nc1nc(-c2ccccc2)cs1	8
CCn1ncc([N+](=O)[O-])c1C(=O)Nc1c(C)nn(Cc2ccc(F)cc2)c1C	12
CCNNC(=O)C(O)(c1cccc(C)c1)c1cccc(C)c1	14
Cc1ccc(-n2c(C)nnc2SCC(=O)N2CCc3ccccc3C2)cc1	10
CCOc1ccc(N=Nc2c(=O)[nH]n3c(=O)c4c([nH]c23)CCCC4)cc1	17
O=C(Cc1cccs1)N1CCN=C1SCc1ccc(F)cc1	7
Cc1cccc(-n2cnc3cc(C(=O)N4CCc5ccccc54)ccc32)c1	9
CCN(CC)C1CCN(C(=O)c2cc(COc3ccc(F)cc3Cl)on2)C1 (stereo not given)	11
CCOC(=O)CSc1c(-c2ccc(Cl)cc2)[nH]c2ccccc12	20
Cc1cc(N2CCN(c3cccc(C)c3C)CC2)nc(-c2ccccc2)n1	9
c1ccc(CSc2ccc(-c3ccc4c(c3)OCO4)nn2)cc1	13
COc1ccc(OC)c(-c2cc(-c3cccnc3)nc(N)c2C#N)c1	13
O=C(O)c1ccccc1C(=O)Nc1cccc([N+](=O)[O-])c1	4
O=C(CCC1CCCN(c2ncccn2)C1)N1CCN(c2ccccn2)CC1 (stereo not given)	25
C=CCN=C(NC#N)SC	17
CC1CCCN(C(=O)Cc2cn(Cc3cccc(Cl)c3)c3ccccc23)C1 (stereo not given)	7
CCCC(=O)C1=C(O)C(C(=O)OC)C(C)(C)CC1=Nc1ccc(C)cc1 (stereo not given)	17
COC(=O)c1ccccc1NC(=O)C1CC(=O)N(c2ccc(OC)cc2)C1 (stereo not given)	21
COc1ccc(NC(=O)c2c(C)nn(Cc3ccccc3)c2Cl)cc1S(=O)(=O)N1CCOCC1	17
CCOC(=O)C1=C(N)N2C(=O)C(C)SC2=C(C(=O)OCC)C1c1ccc(O)cc1 (stereo not given)	10
Cc1nnc(C)c2c(C)n(-c3ccccc3N)c(C)c12	6
Cc1ccc(/C=C/C(=O)N2CCC(Cc3ccccc3)CC2)cc1	10
Cc1cc(NC(=O)Cn2ccc([N+](=O)[O-])n2)no1	11
Cc1ccc(-n2c(SCC(=O)NCCN3C(=O)CSC3=O)nnc2-c2ccccc2)cc1C	6
CC(=O)NS(=O)(=O)c1ccc(NC(=O)c2ccc(-n3nc(C)cc3C)cc2)cc1	13
CCCCNC(=S)N1CCN(C)CC1	5
O=C(O)c1cccc(NC(=S)N/N=C/c2cccc(O)c2)c1	-2
FC(F)(F)c1nnc2ccc(Cl)nn12	7
COc1cc(/C=N/Nc2nncn2N)ccc1OCc1c(C)no[n+]1[O-]	0
CCN(CC)CCN1C(=O)C(=O)/C(=C(/O)c2ccc3c(c2)CC(C)O3)C1c1ccc(OC)cc1 (stereo not given)	12
Cc1ccc2cn[nH]c2c1N	8
COc1ccccc1/C=N\Nc1cn[nH]c(=O)c1Cl	15
CCCN1C(=O)C(Cc2nc3ccccc3c(=O)n2-c2ccccc2)c2cc(C)ccc21 (stereo not given)	9
O=c1[nH]c(C2C3CC4CC(C3)CC2C4)nc2ccccc12 (stereo not given)	7
Cc1ccc(CNC(=O)Cn2cc(C(F)(F)F)ccc2=O)cc1	20
Cc1ccc(-n2ncc3c(=O)n(CC(=O)N4CCN(c5ccccc5)CC4)cnc32)cc1C	14
NC(=O)NOCc1ccccc1F	5
Cn1ncc([N+](=O)[O-])c1C(=O)n1nnc2ccccc21	20
COc1ccc(C[C@H]2CN3C(=NC[C@@H]3Cc3ccccc3)N2C[C@H](C)NC(=O)CCC2CCCCC2)cc1	0

# Later entries:
SMILES	Calb biofilm kill
Cc1ccc(C(=O)CN(Cc2ccccc2)C2=NCCS2)cc1	12
Cc1cc(N/N=C/c2ccccc2Br)nc2ccccc12	5
O=C(CN1C(=O)NC2(CCCCC2)C1=O)N1CCN(S(=O)(=O)c2ccccc2)CC1	9
CCOC(=O)C1=C(c2ccccc2)NC(=O)NC1c1ccc(O)c(OCC)c1 (stereo not given)	18
COc1cc(/C=C(\NC(C)=O)C(=O)NC(C)(C)CC(C)(C)C)ccc1OC(C)=O	13
O=C(NCCc1c[nH]c2ccccc12)/C(=C/c1cccnc1)NC(=O)c1cccs1	-4
CCCCOC(=O)c1ccc(NC(=S)N2CCN(c3ncc4c(=O)c(C(=O)O)cn(CC)c4n3)CC2)cc1	22
O=C(c1cc2ccccc2oc1=O)N1CCOCC1	20
O=C(NCCCl)Nc1cccnc1Cl	6
COc1ccc(CCN(C)C(=O)C2CCN(Cc3ccccc3)CC2)cc1OC	21
Cc1ccc(S(=O)(=O)N2CCN(CC(=O)N/N=C\C(Cl)=C\c3ccccc3)CC2)cc1	23
O=C(NC(=S)N1CCN(c2ccc([N+](=O)[O-])cc2)CC1)c1ccccc1Cl	19
COCC(C)n1c(=O)sc2ccccc2c1=O (stereo not given)	26
O=C(c1cccs1)N1CCN(S(=O)(=O)c2cccs2)CC1	14
Clc1cccc(-c2ccc(C=Nc3ccc(N4CCOCC4)cc3)o2)c1Cl	22

# Quoted at random: 5 compounds from above, in no set order.
SMILES	Calb biofilm kill
Cc1ccc(C(=O)CN(Cc2ccccc2)C2=NCCS2)cc1	12
O=C(NCCc1c[nH]c2ccccc12)/C(=C/c1cccnc1)NC(=O)c1cccs1	-4
CCCCOC(=O)c1ccc(NC(=S)N2CCN(c3ncc4c(=O)c(C(=O)O)cn(CC)c4n3)CC2)cc1	22
COCC(C)n1c(=O)sc2ccccc2c1=O (stereo not given)	26
Clc1cccc(-c2ccc(C=Nc3ccc(N4CCOCC4)cc3)o2)c1Cl	22

# (next part)
Structure | Calb biofilm kill
CC(=O)NC(Cc1ccccc1)c1ccc2c(c1)OCCCO2 (stereo not given) | 3
CN1CCN(c2ccc(CNC(=O)c3ccc4c(c3)OCCO4)cc2)CC1 | 12
COc1cccc(OC)c1OCCCOc1ccc(C)cc1Br | 21
CCc1nn2c(=O)cc(COc3ccc(/C=C4\C(=N)N5N=C(CC(C)C)SC5=NC4=O)cc3)nc2s1 | 9
Cc1ccc(S(=O)(=O)n2c([N+](=O)[O-])cnc2C)c(C)c1C | 6
C/C(CC(=O)NCc1ccco1)=N\NC(=O)CC#N | 16
O=C(NNc1ccc(Cl)cc1)c1cccs1 | 12
c1ccc(CCN=C2CCCc3c2[nH]c2ccccc32)cc1 | 12
CCCCC(=O)Nc1cccn2ncnc12 | -4
O=C(c1cnn2c(C(F)F)cc(-c3ccccc3)nc12)N1CCCCC1c1cccnc1 (stereo not given) | 7
Cc1ccc(Nc2nc(=O)c3cccnc3s2)c(Br)c1 | 23
c1csc(-c2nnc(N3CCCCCC3)c3ccccc23)c1 | 23
COC(=O)[C@@H]1C[C@@H]2CC[C@@H](O)C[C@@H]2N1Cc1ccc(N2CCN(C)CC2)cc1 | 14
CN(C)S(=O)(=O)c1cccc(NC(=O)COC(=O)c2cccc(S(=O)(=O)N3CCc4ccccc4C3)c2)c1 | -9
O=C(NNC1CC(=O)N(c2ccc3c(c2)OCCO3)C1=O)c1ccc(Cl)cc1 (stereo not given) | 14
COc1ccc(NC(=O)c2cccnc2SC)cc1S(=O)(=O)N1CCCCC1 | 1
CN(C)CCOc1cccc(Cl)c1 | 16
CC1(C)CC(=O)N(Cc2ccccc2)C(=O)C1 | 16
CCOC(=O)c1ccc(NC(=O)c2ccccc2N(C)S(=O)(=O)c2ccccc2)cc1 | 13
COc1ccc(COC(=O)Nc2cn(C)nc2C(F)(F)F)cc1 | 8
O=C(NCCC1=CCCCC1)C1CCC(CNS(=O)(=O)c2ccccc2)CC1 (stereo not given) | 11
COc1ccc(/C=C2\CCCc3c2nc2ccccc2c3C(=O)OCC(=O)c2c(N)n(C)c(=O)n(C)c2=O)cc1 | 15
CC(Oc1cccc(NC(=O)c2cccs2)c1)C(=O)c1ccccc1 (stereo not given) | 14
CN(C(=O)CSc1nnc(-c2cccnc2)n1-c1ccccc1F)C1CCS(=O)(=O)C1 (stereo not given) | 18
Cc1cccc(OCCCC(=O)Nc2ccc(S(N)(=O)=O)cc2)c1C | 10
NC(=O)CSc1nnc(Cc2ccc3c(c2)OCO3)o1 | 15
Cc1ccccc1NC(=O)c1cc2ccccn2n1 | 14
COc1ccccc1N(CC(=O)N/N=C/c1ccc(SC)cc1)S(C)(=O)=O | 19
Cn1c2ccccc2c2ncn(Cc3ccc(F)cc3)c(=O)c21 | 19
O=C(NCC(=O)N1CCN(S(=O)(=O)c2cccs2)CC1)c1ccc(Cl)cc1 | 11
Cc1cc(NCc2ccccn2)n2c(nc3ccccc32)c1C#N | -1
COc1ccc(NC(=O)CCN2CCN(S(=O)(=O)c3ccc(OC)cc3)CC2)cc1 | 18
Cc1nnc(SCC(=O)NC(C)(C)C)n1CCc1ccccc1 | 3
Nc1ccc2c(c1)OC1(CCCC1)O2 | 20
CC(=O)C1C(c2ccc(F)cc2)C2C(C)=NN=C2CC1(C)O (stereo not given) | 12
CCN(CC)c1ccc(NC(=S)NC(=O)Cc2ccccc2)cc1 | 15
CN(CC1CCOCC1)C(=O)CC1C(=O)NCCN1Cc1ccc(Cl)c(F)c1 (stereo not given) | -7
N#Cc1cccnc1N1CCN(C(=O)c2ccco2)CC1 | 15
O=C(CC1CCCCC1)NCCOc1ccccc1 | 9
CCN(CC)S(=O)(=O)c1ccc(C(=O)Nc2nnc(COC)o2)cc1 | 4
O=S(=O)(Cc1ccccc1Cl)NCCc1ccccc1 | 16
COc1cc(OC)c2ccc(=O)oc2c1C(CC(=O)N1CCOCC1)c1ccc2c(c1)OCO2 (stereo not given) | 6
O=C(O)c1ccc(CSc2nnc(COc3ccccc3)o2)cc1 | 15
O=C(NC(=S)N1CCOCC1)c1cc2ccccc2o1 | 21
Cc1ccnc(NS(=O)(=O)c2ccc(N3C(=O)c4c(Cl)c(Cl)c(Cl)c(Cl)c4C3=O)cc2)n1 | 20
O=C(NCCc1ccccc1)C(=O)c1c(-c2ccccc2)[nH]c2ccccc12 | 11
O=C(CN1C(=O)COc2ccc(S(=O)(=O)N3CCCC3)cc21)NC1CCCCCCC1 | -4
O=C(CSc1nnc(-c2ccc(F)cc2)o1)NC1CCCCC1 | 21
CN(C)/C=C(\C(=O)c1cccc(Cl)c1)c1nnnn1-c1ccccc1 | 17
Nc1c(C(=O)O)sc2nc3c(cc12)CCCC3 | 3

# In another format: entries from further up
> Cc1ccccc1NC(=O)c1cc2ccccn2n1
  Calb biofilm kill: 14

> O=C(CC1CCCCC1)NCCOc1ccccc1
  Calb biofilm kill: 9

> Cc1ccnc(NS(=O)(=O)c2ccc(N3C(=O)c4c(Cl)c(Cl)c(Cl)c(Cl)c4C3=O)cc2)n1
  Calb biofilm kill: 20

> CN(CC1CCOCC1)C(=O)CC1C(=O)NCCN1Cc1ccc(Cl)c(F)c1 (stereo not given)
  Calb biofilm kill: -7

# Next section:
Structure | Calb biofilm kill
COc1cc2c(cc1N/C=C(\C#N)c1nc(-c3ccccc3)cs1)oc1ccccc12 | 16
CCN(CC)C(=O)c1ccc2c(c1)nnn2C | 11
O=C(COc1ccccc1F)N1CCc2ccccc2C1 | 14
CCOC(=O)c1c(NC(=O)COc2ccccc2)sc2c1CC(C)(C)NC2(C)C | 16
Cc1ccc(S(=O)(=O)NCC2CCC(C(=O)NCc3cccnc3)CC2)cc1 (stereo not given) | 14
N#Cc1c(N)nc2c(c1-c1ccc(F)cc1)CCC2 | 13
S=C(NC1CCCCC1)N1CCN(C2CCCCC2)CC1 | -6
COC(=O)c1ccc([N+](=O)[O-])cc1N1C(=O)C2C3CCC(C3)C2C1=O (stereo not given) | 18
CNc1ccccc(C(=O)/C=C/c2ccccc2OC)c1=O | 11
O=C(NC1(C(=O)NC2CCCCC2)CCCCC1)c1ccc2c(c1)OCO2 | -3
O=S(=O)(Nc1ncccn1)c1ccc(-n2cnnn2)cc1 | 10

# Compound activity (PubChem)

# Some of the compounds tested, so the mix of outcomes need not match the whole.
